CtBP-E1A inh – inhibitors of CtBP/E1A interaction | 0.49% of 340,000 active | AlphaScreen GST-E1A/His-CtBP binding, 1536-well; stronger effect = lower value; control for the full effect not named in the record | activity change, % (test concentration not listed); in the data active means activity change below about -65%; inconclusive means about -30% to -65%; inactive means above about -30%; note: % is set by controls: 0 for no effect and ±100 for the full control effect; compound concentration not given in the record
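Protein mix (5X: 125 nM each GST-E1A, His-CtBP) was incubated with pinned compound 2 h at 37 deg C in dark, in 50 mM Tris pH 8.0 buffer with 300 mM NaCl. Glutathione donor and nickel acceptor beads followed; AlphaScreen signal read after 1 h.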
D2 potentiator – potentiates the human D2 dopamine receptor allosterically; 0.23% of 360,000 active; potentiation, % (no concentration beside the values); P14416; AID 624464; DiscoveRx D2 beta-arrestin cells, luminescence, 90 min; 100% = 57 uM dopamine signal; active = potentiation of 50% or more; inconclusive = 30% to 50%; inactive = 30% or less;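 note: compound concentration not given in the record; tested on top of an EC20 dose of dopamine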
Target sequence (P14416 whole entry, looked up): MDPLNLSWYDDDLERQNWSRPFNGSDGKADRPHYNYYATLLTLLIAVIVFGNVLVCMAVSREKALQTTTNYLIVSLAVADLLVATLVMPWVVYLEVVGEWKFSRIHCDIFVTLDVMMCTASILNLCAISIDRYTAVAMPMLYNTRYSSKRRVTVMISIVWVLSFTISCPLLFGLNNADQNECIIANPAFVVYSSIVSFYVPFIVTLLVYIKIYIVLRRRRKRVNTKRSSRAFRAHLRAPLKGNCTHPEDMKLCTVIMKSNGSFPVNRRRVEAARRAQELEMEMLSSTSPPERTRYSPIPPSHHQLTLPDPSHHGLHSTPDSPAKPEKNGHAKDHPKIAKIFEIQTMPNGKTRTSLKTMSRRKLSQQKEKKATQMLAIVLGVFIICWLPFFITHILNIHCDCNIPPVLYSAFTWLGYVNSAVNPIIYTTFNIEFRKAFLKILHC
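PathHunter beta-arrestin assay in DiscoveRx D2 cells. Compounds were added with an EC20 of dopamine (50 nM final) for 90 min at 37 deg C. Luminescence was read 1 h after detection reagent, with 57 uM dopamine as the EC100 control.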
PINK1 modulator – changes PINK1 expression; 0.2% of 410,000 active; AID 624263; Potency, µM (top dose mostly 76.6 µM), for inactives: at the highest dose activation (PINK1 increase), most hits filed as activators; PINK1 immunofluorescence, high-content cytometry, 24 h; active = well fitted activation curve with a large enough effect; inconclusive = small, poorly fitted or top-dose-only effect; inactive = flat fitted curve, though single readings scatter; cell line not stated here;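 note: potency is the fitted concentration of half-maximal effect; % of control where 0% means no effect; nearly all actives have a fitted effect of over 65% in size; a mitochondrial uncoupler was the plate control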
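PINK1 protein level read as immunofluorescence by microplate cytometer in a fixed, stained stable cell line after 24 h exposure to five compound concentrations, with CCCP as control.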
Six1-Eya2 blk – Six1/Eya2 interaction inhibition; activity change, % (test concentration not listed); 0.56% of 360,000 active; Q15475+O00167; AID 651725; AlphaScreen GST-Six1/His-Eya2 binding, biochemical; stronger effect = lower value; control for the full effect not named in the record; in the data active = activity change below about -65%; inconclusive = about -30% to -65%; inactive = above about -30%; note: % is set by controls: 0 for no effect and ±100 for the full control effect; compound concentration not given in the record
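Six1/Eya2 binding was read as AlphaScreen signal after compounds were pinned into GST-Six1 plus His-tagged Eya2 (5X stock 250/500 nM) in pH 8.0 Tris/NaCl/TCEP buffer, beads added, then incubated 1 h, 37 C, dark.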
TRPML1 ag – agonists of human TRPML1 channel; Q9GZU1; TRPML1-expressing cells, Ca2+ dye fluorescence, FDSS; host cell line not named in the record; reference of the full effect not given here; activation, % (test concentration not listed); 0.12% of 410,000 active; in the data active = activation above about 50%; inconclusive = about 30% to 50%; inactive = below about 30%; note: 0% is about no effect; the text of the record puts the active cut at 80%
Target sequence (Q9GZU1 whole entry, looked up): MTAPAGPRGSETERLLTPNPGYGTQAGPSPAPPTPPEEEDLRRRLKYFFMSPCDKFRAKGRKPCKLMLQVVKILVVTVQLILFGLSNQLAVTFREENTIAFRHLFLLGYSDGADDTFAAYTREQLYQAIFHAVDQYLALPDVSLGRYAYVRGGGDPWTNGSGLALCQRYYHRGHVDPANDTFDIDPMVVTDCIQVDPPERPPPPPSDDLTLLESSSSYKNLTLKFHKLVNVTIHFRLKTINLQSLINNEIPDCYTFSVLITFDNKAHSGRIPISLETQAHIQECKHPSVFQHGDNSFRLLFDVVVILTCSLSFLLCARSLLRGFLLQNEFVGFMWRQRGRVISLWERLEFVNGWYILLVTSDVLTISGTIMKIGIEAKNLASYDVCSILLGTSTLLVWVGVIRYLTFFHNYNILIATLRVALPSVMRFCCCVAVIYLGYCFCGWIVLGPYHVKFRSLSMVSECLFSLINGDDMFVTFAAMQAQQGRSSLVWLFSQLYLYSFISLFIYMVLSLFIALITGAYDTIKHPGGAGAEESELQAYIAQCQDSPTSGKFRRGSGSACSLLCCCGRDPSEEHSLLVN
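Calcium fluorescence on an FDSS kinetic reader gave the read-out. Tet-induced TRPML1-DL cells were plated overnight, dye-loaded (Ca8 with quencher, 45-90 min, room temperature, dark), then read 110 s after compound addition, and again 110 s after 4uM final 54-4 (EC80).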
D2 agonist – human D2 receptor agonism in beta-arrestin assay; activation, % (concentration not given with the values); 0.084% of 360,000 active; DiscoveRx PathHunter D2 beta-arrestin, luminescence, 90 min; 100% = 57 uM dopamine signal; P14416; in the data active = activation above about 40%; inconclusive = about 15% to 40%; inactive = below about 15%; note: compound concentration not given in the record; the text of the record calls up to 30% inactive
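Agonist mode: compounds alone added to overnight-plated D2 PathHunter cells for 90 min at 37 C, with 57 uM final dopamine (EC100) defining full response. Beta-arrestin recruitment detected by chemiluminescent reagent, read after 1 h at ambient temperature.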
Numbers without * were called inactive; ? = inconclusive; . = not tested or not shown; & = joins results of further samples; [ ] = remark or other dose.

SMILES	CtBP-E1A inh	D2 potentiator	PINK1 modulator	Six1-Eya2 blk	TRPML1 ag	D2 agonist
CC1(Oc2ccc(Cl)cc2)CCN(Cc2csc3ccccc23)C1 (configuration not stated)	19	-10	15%	7	-0.5	4.9
CCOC(=O)c1cnc2c(C)cccc2c1Nc1cccc(C(=O)O)c1	-2	-8	0.8%	1	.	-4.4
COc1ccc2[nH]c(C)c(CCNC(=S)Nc3ccccc3OC)c2c1	.	-11	3.0%	-22	0.5	-2.0
COc1ccc2c(c1)c(C(=O)N/N=C/c1ccc(OC)c(OC)c1)c(C)n2C	0	-9	28%	-22	1.9	-2.5
COc1ccc(CC(=O)NNC(=O)CSc2nnc(C)n2-c2ccccc2)cc1	5	2	-2.7%	2	-0.1	-12
CC(Oc1ccccc1)C(=O)Nc1ccc(NC(=O)c2ccccc2)cc1 (configuration not stated)	-1	-29	?	3	0.2	-4.3
COc1ccc(NC(=O)CN2CCN(c3nc(-c4cccc(OC)c4)cs3)CC2)cc1	-7	-4	2.3%	-11	-0.7	-2.2
Cc1ccc(C(=O)Nc2cccc3ccccc23)cc1	.	-10	1.9%	5	1.8	-1.4
COc1ccccc1Oc1ccc(S(=O)(=O)N2CCCCC2C)cc1 (configuration not stated)	-4	1	-2.0%	7	4.9	-1.1
CCCS(=O)(=O)N1CCCC(C(=O)NCCCN(CC)c2cccc(C)c2)C1 (configuration not stated)	4	-24	0.3%	12	0.3	-4.2
O=C(COC(=O)c1ccc(Br)c(S(=O)(=O)N2CCOCC2)c1)NCC1CCCO1 (configuration not stated)	6	-5	2.1%	0	-0.4	-2.3
COc1ccc(/C=C2/C(=O)N(c3ccccc3)N=C2C)cc1	-1	-2	6.2%	1	1.4	-1.7
COc1ccc(C(C)=O)c(OC(=O)c2ccco2)c1	-3	2	-0.9%	0	3.3	-9.7
Cc1ccc(Sc2ccc(NC(=O)CCl)cc2)c(C)c1	1	-1	2.4%	-6	0.3	-2.0
O=C(COC(=O)c1c(Cl)cccc1Cl)NCc1cccs1	6	10	0.0%	-1	0.3	4.3
NC(=O)COc1ccc(NC(=O)OCc2ccccc2)cc1	1	29	2.2%	-22	-0.6	0.6
Cc1noc(C)c1COc1ccccc1C(=O)NNC(=O)c1ccccc1F	-1	-2	0.1%	2	0.0	0.5
CCC(NS(=O)(=O)c1ccc2c(c1)Cc1cc(S(=O)(=O)NC(CC)C(=O)O)ccc1-2)C(=O)O (configuration not stated)	-7	0	3.3%	-17	0.1	2.7
C=CCNC(=O)COC(=O)COc1ccc(Cl)cc1	15	-2	0.9%	0	0.0	3.2
CC1CC(C)CN(C(=O)CCC(=O)Nc2nnc(C3CCCCC3)s2)C1 (configuration not stated)	1	-7	1.1%	5	-0.2	-0.9
CCc1ccccc1NC(=O)Cn1nc(C)n2cccc2c1=O	.	-8	0.7%	4	-0.3	-5.6
COc1cccc(CN(C)C(=O)c2ccc(S(=O)(=O)Nc3ccccc3F)cc2)c1OC	-5	?	0.2%	1	-0.5	-0.8
O=C(COc1ccc(C(=O)c2ccccc2)cc1)NC1CCCCC1	10	0	1.2%	1	-0.1	-5.2
C=CCc1ccccc1OCCOc1ccc([N+](=O)[O-])cc1/C=N/NC(N)=O	-7	-10	6.7%	13	1.5	-4.0
Cc1nc2ccc(NC(=S)NC3CC3)cc2nc1C	10	-6	2.9%	6	0.2	-2.1

Continuation:
SMILES	CtBP-E1A inh	D2 potentiator	PINK1 modulator	Six1-Eya2 blk	TRPML1 ag	D2 agonist
CCOC(=O)c1cc2c(=O)n3cccc(C)c3nc2n(CC2CCCO2)c1=NC(C)=O (configuration not stated)	1&-6	-8&-2	0.8%&3.2%	-3&-9	-0.4&-1.5	-5.2&-5.0
CC(C)C(=O)Nc1cccc(NC(=O)c2cccc(Br)c2)c1	0	-5	2.2%	-2	-0.6	1.6
COc1ccc(-c2c3c(cc4ncn(Cc5ccccc5)c24)COC3=O)cc1	-3	-2	-0.6%	-4	0.7	-2.2
CCOc1cc(Cl)c(S(=O)(=O)NCCCn2ccnc2)cc1Cl	.	-2	1.7%	-3	.	3.2
CC1CCCCN1CCCNC(=O)c1ccc2c(=O)n(CCc3ccccc3)c(=O)[nH]c2c1 (configuration not stated)	3	-17	-3.1%	1	-0.3	-3.9
Cc1cccc(Nc2ncnc3onc(-c4cccc(Cl)c4)c23)c1C	3	-8	3.2%	7	0.4	6.6
Cc1ccc(C(=O)N2CCN(c3ncccn3)CC2)c(C)c1	-2	-7	0.9%	8	-0.3	-2.1
Cc1cccc(N=C2NC(=O)/C(=C/c3cccn3C)S2)c1C	-15	-9	0.0%	-28	2.6	-1.6
O=C(O)c1ccc(N2C(=O)c3ccccc3C2=O)cc1[N+](=O)[O-]	0	-10	-0.8%	8	-0.6	-7.3
O=C(c1cccc([N+](=O)[O-])c1)N1CCN(c2cccc(Cl)c2)CC1	-22	-1	0.5%	-6	3.7	2.8
Cc1ccc(C(=O)NNC(=O)C(C)Oc2ccccc2F)cc1S(=O)(=O)N1CCOCC1 (configuration not stated)	-2	-15	6.0%	-3	0.0	-5.1
COCc1nnc(NC(=O)CCSc2ccccc2)s1	0	0	-0.3%[38.3 µM]	4	1.5	-0.7
COc1ccc([C@H]2CC(=O)C=C(c3ccc(C)c(F)c3)C2)cc1	6	-10	2.1%	-6	0.6	-1.9
COc1cccc(CNC(=O)C2CCN(S(=O)(=O)c3cccs3)CC2)c1	-7	18	.	1	-0.3	0.6
CC(=O)Nc1ccc(S(=O)(=O)n2cnc(C)c2)cc1	-5	-4	-0.4%	7	-0.4	-0.5
Cc1c(C(=O)NCc2ccc(C#N)cc2)sc(=O)n1Cc1ccccn1	5	-2	0.8%	0	3.9	-3.1
CC(C1CC2CCC1C2)n1c(-c2cccs2)n[nH]c1=S (configuration not stated)	-3	-19	4.5%	-7	0.9	-2.9
COc1ccc(CCN2CCCC(CN(C)C(=O)c3cc(C)oc3C)C2)cc1 (configuration not stated)	-2	-11	-0.1%	-1	0.9	-2.0
COc1ccccc1NS(=O)(=O)c1ccc(C)c(C(=O)Nc2ccc(S(=O)(=O)Nc3onc(C)c3C)cc2)c1	.	-8	-0.5%	-1	-1.2	-3.9
COC(=O)c1[nH]c2c(c1C)C(=O)CC(c1cc(OC)ccc1OC)C2 (configuration not stated)	3	5	16%	-6	4.4	1.7
O=c1[nH]nc(Cc2ccccn2)c2ccccc12	1	-5	7.2%[38.3 µM]	2	3.2	-1.8
O=C(c1cc2ccccc2cc1OCC(O)CN1CCCCC1)N1CCCCC1 (configuration not stated)	-15	-12	-0.6%	-8	0.8	-7.4
CCCOc1ccc(/C=N/O)cc1	6	-17	0.7%	4	1.0	-0.1
CCc1ccc(NC(=O)C(C)OC(=O)c2ccc(N3CCCC3)c([N+](=O)[O-])c2)cc1 (configuration not stated)	.	-7	3.8%	-4	0.8	-0.9
CN(Cc1ccccc1)c1nc(N)nc(Cl)c1C=O	-17	9	-1.3%	13	0.2	13

Next part.
SMILES	CtBP-E1A inh	D2 potentiator	PINK1 modulator	Six1-Eya2 blk	TRPML1 ag	D2 agonist
Cc1ccc2c(CN(C)Cc3ccc(Cl)cc3)cc(=O)oc2c1	14	-8	1.5%	26	0.7	-4.1
CCOCC(=O)Nc1cccc(C(=O)OCC)c1	1	2	-2.5%	8	0.1	-3.8
CCOc1cc(/C=N/O)cc(Br)c1OCc1ccc(Cl)cc1	5	-8	5.7%	4	1.8	-3.7
O=C(/C=C/c1cccc(Br)c1)NCC1CCCCC1	3	-32	-1.3%	5	0.5	0.6
CCOC(=O)C1CCCN(C(=O)c2cccc3ccccc23)C1 (configuration not stated)	7	-1	5.6%	4	-0.6	6.5
Cc1cc(C)n(-c2nc3ccccc3nc2N2CCN(C(=O)c3ccc(Cl)cc3)CC2)n1	6	-12	-5.7%[38.3 µM]	16	0.9	-2.1
COc1cccc(C(=O)O)c1OS(=O)(=O)c1ccc(C)cc1	-13	-6	0.5%	0	0.0	-9.3
COc1ccc(C(=O)COC(=O)C(CCSC)NS(=O)(=O)c2ccc(Cl)cc2)cc1 (configuration not stated)	-7	-3	-2.3%	-8	3.0	2.9
COc1ccc(CCC(=O)N(C)CC(=O)Nc2ccc(N3CCOCC3)cc2)cc1	3	-3	-0.4%	7	-0.5	0.0
NC(=O)c1ccc(NC(=O)CS(=O)(=O)c2cn(CC(=O)N3CCCCC3)c3ccccc23)cc1	-19	-6	6.0%	-2	0.4	3.8
COc1ccc(C(=O)OCC(=O)N2CCCC2=O)c(OC)c1	-20	-3	-2.2%	8	-0.3	-4.5
COc1ccc(NC(=O)COC(=O)C(NC(=O)c2ccc(C)cc2)C(C)C)cn1 (configuration not stated)	0	-6	0.8%	-2	4.5	0.3
COc1ccccc1C(=O)NC(=S)Nc1ccc(NC(=O)c2ccco2)cc1	12	-1	10%	-3	1.5	7.5
COCCn1c(C)cc(C2=NNC(=Nc3ccc(F)cc3)SC2)c1C	-23	-17	0.0%	-20	0.2	-2.6
Cc1c(NC(=O)Nc2ccccc2Cl)sc(=S)n1C	0	-19	-7.5%[38.3 µM]	3	-0.7	-2.9
Cc1c(C(C)(C)O)[nH]c2ccc(C(F)(F)F)cc12	-2	0	1.4%	-2	0.6	1.3
Cc1nn(-c2ccccc2)c(N2CCCC2)c1/C=N/NC(=O)c1cc(-c2cccnc2)nc2ccccc12	-10	-2	-1.0%	-20	2.6	4.5
COc1ccccc1C1C(C(=O)c2cc3ccccc3o2)=C(O)C(=O)N1CCN1CCOCC1 (configuration not stated)	-1	4	-0.5%	3	0.5	1.6
COc1ccc(N=Nc2c(N)nn(C)c2N)cc1	-3	-4	1.0%	-7	1.0	-3.9
Cc1sc2ncnc(NCCCO)c2c1C	5	-3	0.2%	4	-0.7	6.4

Four of the entries above in order of their number in D2 potentiator, highest first:
molecule	CtBP-E1A inh	D2 potentiator	PINK1 modulator	Six1-Eya2 blk	D2 agonist
CCOC(=O)C1CCCN(C(=O)c2cccc3ccccc23)C1 (configuration not stated)	7	-1	5.6%	4	6.5
COc1ccc(C(=O)COC(=O)C(CCSC)NS(=O)(=O)c2ccc(Cl)cc2)cc1 (configuration not stated)	-7	-3	-2.3%	-8	2.9
NC(=O)c1ccc(NC(=O)CS(=O)(=O)c2cn(CC(=O)N3CCCCC3)c3ccccc23)cc1	-19	-6	6.0%	-2	3.8
O=C(/C=C/c1cccc(Br)c1)NCC1CCCCC1	3	-32	-1.3%	5	0.6

A draw from above in order of formula weight, low to high:
SMILES	CtBP-E1A inh	D2 potentiator	PINK1 modulator	Six1-Eya2 blk	TRPML1 ag	D2 agonist
Cc1c(C(C)(C)O)[nH]c2ccc(C(F)(F)F)cc12	-2	0	1.4%	-2	0.6	1.3
Cc1ccc2c(CN(C)Cc3ccc(Cl)cc3)cc(=O)oc2c1	14	-8	1.5%	26	0.7	-4.1
CCOc1cc(/C=N/O)cc(Br)c1OCc1ccc(Cl)cc1	5	-8	5.7%	4	1.8	-3.7
COc1ccc(CCC(=O)N(C)CC(=O)Nc2ccc(N3CCOCC3)cc2)cc1	3	-3	-0.4%	7	-0.5	0.0
COc1ccccc1C1C(C(=O)c2cc3ccccc3o2)=C(O)C(=O)N1CCN1CCOCC1 (configuration not stated)	-1	4	-0.5%	3	0.5	1.6
